Bioassay records: PubChem BioAssay, Broad Institute
AF4-AF9 inh = MLL-AF4/AF9 protein interaction inhibition; P42568; hit rate 0.47% among 350,000; AlphaScreen, biotin-AF4 peptide binding to FLAG-AF9; inhibition, % at 10 µM;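 active = every replicate reaching a set inhibition limit, whatever the replicate mean, cut at about 25% in these data; inconclusive = mean inhibition reaches that limit but some replicates miss it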;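 also: 0% = plate neutral control median and 100% = total signal loss; the record names both 10 and 1 µM as test concentration; the first replicate is given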
Target sequence (P42568 whole entry, looked up): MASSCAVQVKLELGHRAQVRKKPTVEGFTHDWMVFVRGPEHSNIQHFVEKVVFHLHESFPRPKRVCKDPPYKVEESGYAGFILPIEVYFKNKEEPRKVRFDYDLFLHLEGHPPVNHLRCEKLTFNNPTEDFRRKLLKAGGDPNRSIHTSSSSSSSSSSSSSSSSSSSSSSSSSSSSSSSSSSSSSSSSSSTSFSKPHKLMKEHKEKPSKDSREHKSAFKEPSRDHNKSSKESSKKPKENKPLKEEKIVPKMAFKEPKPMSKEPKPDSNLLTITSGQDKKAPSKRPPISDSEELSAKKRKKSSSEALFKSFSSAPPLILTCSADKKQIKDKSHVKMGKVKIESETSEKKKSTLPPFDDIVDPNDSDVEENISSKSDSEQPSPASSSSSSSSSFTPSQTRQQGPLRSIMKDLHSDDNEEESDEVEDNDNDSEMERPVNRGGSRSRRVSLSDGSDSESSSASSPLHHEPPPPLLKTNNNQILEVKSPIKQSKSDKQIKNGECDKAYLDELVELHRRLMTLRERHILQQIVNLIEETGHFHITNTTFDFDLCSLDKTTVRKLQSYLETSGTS
Starred values were filed as active, the others as inactive. These rows are one share of the data (hit frequency here may not be typical).

For C[C@@H]1CN([C@@H](C)CO)C(=O)c2cc(C#CC3(O)CCCC3)cnc2O[C@H]1CN(C)C the results were AF4-AF9 inh -3.1.
CO[C@H](CN(C)C(=O)C1CCOCC1)[C@H](C)CN([C@H](C)CO)S(=O)(=O)c1ccccc1 was read as AF4-AF9 inh -6.4.
`COc1ccc2c3c(n(C)c2c1)[C@@H](CO)N(Cc1cccnc1)CC31CCN(C(=O)c2cccnc2)CC1` gave AF4-AF9 inh 1.2.
Screening Cc1noc(C)c1NC(=O)Nc1cccc2c1O[C@H](CN(C)C(=O)Nc1c(C)noc1C)[C@@H](C)CN([C@H](C)CO)C2=O returned AF4-AF9 inh -3.9.
`CCCC(=O)Nc1ccc2c(c1)OC[C@H](C)N(C)C[C@H](C)[C@H](OC)CN(C)C2=O` gave AF4-AF9 inh -2.8.
For COc1ccc(C(=O)N2C[C@H]3[C@@H](c4ccccc42)[C@H](CO)N3Cc2ccccc2Cl)cc1 the results were AF4-AF9 inh 1.1.
For CNC[C@@H]1OCCCC[C@@H](C)Oc2ccc(NS(=O)(=O)c3cccs3)cc2C(=O)N([C@H](C)CO)C[C@@H]1C the results were AF4-AF9 inh -4.1.
For COc1ccc(C2=Nc3ccccc3N(C(=O)c3ccncc3)C2C(=O)NC(C)(C)C)cc1 (stereo not given) the results were AF4-AF9 inh 3.0.
For C[C@H](CO)N1C[C@H](C)[C@H](CN(C)CC2CCCCC2)Oc2c(NC(=O)Nc3ccc(C(F)(F)F)cc3)cccc2C1=O the results were AF4-AF9 inh 7.8.
Screening C[C@@H]1CN([C@@H](C)CO)C(=O)c2cc(-c3ccc(F)cc3)cnc2O[C@H]1CN(C)CC1CCCCC1 returned AF4-AF9 inh -2.6.
COCC(=O)N1C[C@H](C)[C@H](OC)CN(C)C(=O)c2ccc(NC(=O)C3CCC3)cc2OC[C@H]1C was read as AF4-AF9 inh -3.3.
For O=C(C[C@H]1C[C@@H]2c3cc(NC(=O)C4CCC4)ccc3O[C@@H]2[C@H](CO)O1)NCCc1ccccc1 the results were AF4-AF9 inh -1.8.
For C[C@@H]1CCCCO[C@H](CN(C)C(=O)NC2CCCCC2)[C@H](C)CN([C@H](C)CO)C(=O)c2cc(NC(=O)Nc3ccc(F)cc3)ccc2O1 the results were AF4-AF9 inh -0.2.
Screening O=C(C[C@@H]1C=C[C@@H](NC(=O)c2ccncc2)[C@H](CO)O1)NCC1CC1 returned AF4-AF9 inh -1.3.
Screening CCC(=O)N1C[C@H](C)[C@H](OC)CN(C)C(=O)c2cc(NC(=O)Nc3ccccc3)ccc2OC[C@@H]1C returned AF4-AF9 inh -2.9.
For C[C@H](CO)N1C[C@H](C)[C@@H](CN(C)Cc2ccncc2)Oc2ccc(NC(=O)Nc3ccc(C(F)(F)F)cc3)cc2CC1=O the results were AF4-AF9 inh 4.3.
O=C(NCc1cccc(Cl)c1)c1ccc(-n2cncn2)c2ccoc12 was read as AF4-AF9 inh -2.4.
For C[C@@H](O)C#Cc1ccc([C@H]2[C@H](CO)N3CCCCN(CC4CC4)C[C@@H]23)cc1 the results were AF4-AF9 inh 7.3.
Screening Cc1noc(C)c1NC(=O)Nc1ccc2c(c1)C(=O)N([C@@H](C)CO)C[C@H](C)[C@@H](CN(C)C(=O)Nc1c(C)noc1C)OCCCC[C@H](C)O2 returned AF4-AF9 inh -2.3.
`COc1ccc(S(=O)(=O)N(C)C[C@H]2Oc3ccc(NC(=O)CCCCCC(=O)Nc4ccccc4N)cc3C(=O)N([C@H](C)CO)C[C@@H]2C)cc1` gave AF4-AF9 inh -1.6.
For COc1ccc(NC(=O)Nc2ccc3c(c2)[C@H]2C[C@@H](CC(=O)N(C)C)O[C@H](CO)[C@H]2O3)cc1 the results were AF4-AF9 inh 4.0.
Screening COc1ccc2c3c([nH]c2c1)[C@@H](CO)N(Cc1ccccc1)CC31CCN(CC2CC2)CC1 returned AF4-AF9 inh 21.9.
Screening C[C@H]1CN([C@@H](C)CO)C(=O)c2ccccc2-c2ccccc2CO[C@H]1CN(C)C(=O)[C@@H](Cc1ccccc1)N(C)C returned AF4-AF9 inh 3.6.
Cc1ccc(S(=O)(=O)N(C)C[C@@H]2Oc3ncc(-c4ccncc4)cc3C(=O)N([C@@H](C)CO)C[C@@H]2C)cc1 was read as AF4-AF9 inh -1.3.
C[C@@H]1CN([C@@H](C)CO)C(=O)c2cc(NC(=O)Nc3ccccc3)ccc2O[C@@H](C)CCCCO[C@@H]1CN(C)S(=O)(=O)c1cccs1 was read as AF4-AF9 inh -0.9.
`CC=Cc1ccc2n(c1=O)C[C@H]1[C@H](CO)[C@@H](C(=O)NCCC)[C@@H]2N1CCC(F)(F)F` (mixture of isomers) gave AF4-AF9 inh -2.3.
`CCN(CC)c1ccc(S(=O)(=O)N2CCOCC2)cc1NC(=O)CNCc1cccc(Cl)c1` gave AF4-AF9 inh -1.8.
`CO[C@H]1CN(C)C(=O)c2ccc(NC(=O)C3CCCC3)cc2OC[C@@H](C)N(C(=O)CC2CC2)C[C@H]1C` gave AF4-AF9 inh -3.3.
O=C(C[C@H]1CC[C@@H](NC(=O)Nc2ccc(C(F)(F)F)cc2)[C@H](CO)O1)NCc1cccc(F)c1 was read as AF4-AF9 inh 0.4.
Screening CO[C@H]1CN(C)C(=O)c2cc(NC(=O)CC(F)(F)F)ccc2OC[C@H](C)N(CCC(F)(F)F)C[C@@H]1C returned AF4-AF9 inh -3.2.
`COCC(=O)N(C)C[C@H]1Oc2ncc(C3=CCCCC3)cc2C(=O)N([C@@H](C)CO)C[C@H]1C` gave AF4-AF9 inh -8.0.
CN1OC[C@@H]2CN(CC3CCCCC3)[C@H](c3ccc(-c4ccc(C#N)cc4)cc3)C[C@@H]21 was read as AF4-AF9 inh 0.7.
For C[C@@H]1CCCCO[C@@H](CN(C)S(=O)(=O)c2ccccc2)[C@H](C)CN([C@@H](C)CO)C(=O)c2cc(NS(=O)(=O)c3ccc(Cl)cc3)ccc2O1 the results were AF4-AF9 inh 3.5.
`COc1ccc(NC(=O)N(C)C[C@H]2Oc3c(NS(C)(=O)=O)cccc3C(=O)N([C@@H](C)CO)C[C@H]2C)cc1` gave AF4-AF9 inh -0.6.
C/C=C/c1cnc2c(c1)C(=O)N([C@@H](C)CO)C[C@@H](C)[C@H](CN(C)Cc1ccc3c(c1)OCO3)O2 was read as AF4-AF9 inh 3.0.
For CC(C)C[C@@H](CN1CCCC1CN1C(=S)NC[C@@H]1Cc1ccccc1)N1C[C@H](Cc2ccc(O)cc2)N(CC2CCCCC2)C1=S (stereo not given in full) the results were AF4-AF9 inh 6.3.
C[C@@H](NC(=O)C[C@H]1CC[C@H]2[C@@H](COc3ccc(NC(=O)C4CCOCC4)cc3C(=O)N2C)O1)c1ccccc1 was read as AF4-AF9 inh -3.4.
CN1[C@@H](CO)[C@@H]2c3ccccc3N(C(=O)Nc3ccccc3F)C[C@@H]21 was read as AF4-AF9 inh 0.0.
C[C@H]1CN([C@@H](C)CO)C(=O)Cc2cc(N(C)C)ccc2O[C@H]1CN(C)Cc1ccc(Oc2ccccc2)cc1 was read as AF4-AF9 inh 48.2*.
`COc1ccc(S(=O)(=O)Nc2ccc3c(c2)C(=O)N([C@H](C)CO)C[C@@H](C)[C@@H](CN(C)C(=O)c2ccncc2)OCCCC[C@@H](C)O3)cc1` gave AF4-AF9 inh -2.1.
For C/C=C/c1ccc([C@@H]2[C@H](CO)N(C(C)=O)C23CN(C(=O)c2cnccn2)C3)cc1 the results were AF4-AF9 inh 1.0.
Screening CCCNC(=O)N1[C@@H](CO)[C@@H](c2ccccc2)C12CN(C(=O)c1cccnc1)C2 returned AF4-AF9 inh -9.0.
O=C(C[C@H]1C=C[C@H](NC(=O)c2ccccc2)[C@H](CO)O1)Nc1ccc(-c2ccccc2)cc1 was read as AF4-AF9 inh -2.0.
Screening O=C(N[C@H]1CC[C@H](CCNC(=O)C2CC2)O[C@H]1CO)c1ccccn1 returned AF4-AF9 inh -1.4.
CC(C)NC(=O)Nc1ccc2c(c1)C(=O)N([C@H](C)CO)C[C@H](C)[C@H](CN(C)CC1CC1)O2 was read as AF4-AF9 inh -1.4.
For CC(C)(C)[S@@](=O)N1Cc2cc(C(=O)O)nc(-c3cccc(-c4ccc(F)cc4)c3)c2[C@H]1CCO the results were AF4-AF9 inh -4.0.
Screening CC=Cc1ccc2n(c1=O)C[C@@H]1[C@@H](CO)[C@H](C(=O)NCC)[C@H]2N1Cc1ccccc1 (mixture of isomers) returned AF4-AF9 inh -1.5.
Screening Cc1ccc(S(=O)(=O)Nc2cccc3c2O[C@@H](CN(C)C(=O)Nc2c(C)noc2C)[C@@H](C)CN([C@@H](C)CO)C3=O)cc1 returned AF4-AF9 inh -14.3.
Cc1ccccc1S(=O)(=O)N1CC[C@@H]2[C@H]1c1cc(-c3cccc(C#N)c3)ccc1N(C)[C@H]2CO was read as AF4-AF9 inh -2.2.
For O=C(C1CC1)N1C[C@H]2[C@@H](c3ccccc31)[C@H](CO)N2C(=O)Nc1cccc(F)c1 the results were AF4-AF9 inh -6.9.
CC(C)NC(=O)Nc1cccc2c1O[C@@H](CN(C)S(=O)(=O)c1ccc(Cl)cc1)[C@@H](C)CN([C@H](C)CO)C2=O was read as AF4-AF9 inh -2.0.
`C[C@H](CO)N1C[C@H](C)[C@@H](CN(C)Cc2ccc(Cl)c(Cl)c2)Oc2ccc(NC(=O)C3CC3)cc2CC1=O` gave AF4-AF9 inh 2.6.
Screening COc1cccc(S(=O)(=O)N[C@H]2CC[C@H](CCN)O[C@@H]2CO)c1 returned AF4-AF9 inh 3.9.
Screening C/C=C/c1ccc([C@@H]2[C@@H](CO)N(CCC(F)(F)F)C23CN(C(=O)CC2CC2)C3)cc1 returned AF4-AF9 inh -1.4.
`CCCNC(=O)Nc1ccc2c(c1)C(=O)N(C)C[C@H](OC)[C@@H](C)CN(C(=O)C1CCCCC1)[C@@H](C)CO2` gave AF4-AF9 inh -0.2.
COCC(=O)N(C)C[C@@H]1Oc2cc(C#C[C@H](C)O)ccc2S(=O)(=O)N([C@H](C)CO)C[C@H]1C was read as AF4-AF9 inh -3.0.
`COC(=O)[C@]12C[C@H](CC(=O)NCc3ccccc3)C(=O)N(Cc3ccc4c(c3)OCO4)C1=C[C@H](C(C)(C)C)O[C@@H]2C` gave AF4-AF9 inh 6.1.
Screening C[C@@H]1CN([C@H](C)CO)C(=O)c2cc(NC(=O)NC3CCCCC3)ccc2O[C@@H](C)CCCCO[C@H]1CN(C)C(=O)Nc1ccccc1 returned AF4-AF9 inh -1.8.
Screening COc1ccc2c3c(n(C)c2c1)[C@@H](CO)N(C)CC31CCN(S(=O)(=O)c2cccc(F)c2)CC1 returned AF4-AF9 inh 15.5.
CCCCNC(=O)C(NC(=O)c1ccc(C)cc1)C(=O)c1ccccc1 (stereo not given) was read as AF4-AF9 inh -2.6.

Three structures already listed, ordered by molar mass, highest first:
`COC(=O)[C@]12C[C@H](CC(=O)NCc3ccccc3)C(=O)N(Cc3ccc4c(c3)OCO4)C1=C[C@H](C(C)(C)C)O[C@@H]2C` gave AF4-AF9 inh 6.1.
Screening C/C=C/c1ccc([C@@H]2[C@@H](CO)N(CCC(F)(F)F)C23CN(C(=O)CC2CC2)C3)cc1 returned AF4-AF9 inh -1.4.
CCCCNC(=O)C(NC(=O)c1ccc(C)cc1)C(=O)c1ccccc1 (stereo not given) was read as AF4-AF9 inh -2.6.

Next section
For CCc1nc2ccc(C(=O)Nc3cccc(OCC(=O)N(C)C)c3)cn2c1N(CCC(C)C)CCN(C)C the results were AF4-AF9 inh 0.9.
Cc1noc(C)c1NC(=O)Nc1ccc2c(c1)C(=O)N([C@H](C)CO)C[C@H](C)[C@@H](CN(C)Cc1ccc(C(F)(F)F)cc1)O2 was read as AF4-AF9 inh 2.2.
`C[C@H](CO)N1C[C@H](C)[C@H](CN(C)S(=O)(=O)c2ccccc2)Oc2c(NS(=O)(=O)c3cccs3)cccc2C1=O` gave AF4-AF9 inh -3.1.
For COc1ccc(NC(=O)N(C)C[C@H]2OCCCC[C@H](C)Oc3ccc(NS(=O)(=O)c4ccc(Cl)cc4)cc3C(=O)N([C@@H](C)CO)C[C@H]2C)cc1 the results were AF4-AF9 inh -2.0.
Screening CO[C@@H]1CN(C)C(=O)c2cc(NC(=O)Nc3ccccc3F)ccc2OC[C@H](C)N(CC2CC2)C[C@H]1C returned AF4-AF9 inh inconclusive.
For O=C(NCC1CCCCC1)c1[nH]c(C(F)(F)F)nc1-c1ccccc1 the results were AF4-AF9 inh -1.4.
For C[C@@H]1CN([C@H](C)CO)S(=O)(=O)c2ccc(-c3cccnc3)cc2O[C@H]1CN(C)C the results were AF4-AF9 inh -5.3.
CCC(=O)N(C)C[C@H]1Oc2cc(C#CC3CCCCC3)ccc2S(=O)(=O)N([C@@H](C)CO)C[C@@H]1C was read as AF4-AF9 inh 6.5.
O=C(C[C@H]1C[C@H]2c3cc(NC(=O)CC4CC4)ccc3O[C@H]2[C@H](CO)O1)NCc1cccc(F)c1 was read as AF4-AF9 inh -0.1.

An excerpt of the results above, for reference:
For CCc1nc2ccc(C(=O)Nc3cccc(OCC(=O)N(C)C)c3)cn2c1N(CCC(C)C)CCN(C)C the results were AF4-AF9 inh 0.9.
Cc1noc(C)c1NC(=O)Nc1ccc2c(c1)C(=O)N([C@H](C)CO)C[C@H](C)[C@@H](CN(C)Cc1ccc(C(F)(F)F)cc1)O2 was read as AF4-AF9 inh 2.2.
`C[C@H](CO)N1C[C@H](C)[C@H](CN(C)S(=O)(=O)c2ccccc2)Oc2c(NS(=O)(=O)c3cccs3)cccc2C1=O` gave AF4-AF9 inh -3.1.
For COc1ccc(NC(=O)N(C)C[C@H]2OCCCC[C@H](C)Oc3ccc(NS(=O)(=O)c4ccc(Cl)cc4)cc3C(=O)N([C@@H](C)CO)C[C@H]2C)cc1 the results were AF4-AF9 inh -2.0.
Screening CO[C@@H]1CN(C)C(=O)c2cc(NC(=O)Nc3ccccc3F)ccc2OC[C@H](C)N(CC2CC2)C[C@H]1C returned AF4-AF9 inh inconclusive.
For O=C(NCC1CCCCC1)c1[nH]c(C(F)(F)F)nc1-c1ccccc1 the results were AF4-AF9 inh -1.4.
